Compound activity deposited in PubChem by National Center for Advancing Translational Sciences (NCATS).
TRPV1 potentiator: potentiators of human vanilloid receptor 1 (TRPV1) | potentiation, % at 8.33 µM | 0.02% of 320,000 active | Q8NER1 | TRPV1-expressing cells, Fluo-8 calcium influx, capsaicin EC20 potentiation; host cell line not named in the record; control for the full effect not named in the record; active means potentiation above 80%; inconclusive means 30% to 80%; inactive means below 30%; note: 0% is about no effect
Target sequence (Q8NER1 whole entry, looked up): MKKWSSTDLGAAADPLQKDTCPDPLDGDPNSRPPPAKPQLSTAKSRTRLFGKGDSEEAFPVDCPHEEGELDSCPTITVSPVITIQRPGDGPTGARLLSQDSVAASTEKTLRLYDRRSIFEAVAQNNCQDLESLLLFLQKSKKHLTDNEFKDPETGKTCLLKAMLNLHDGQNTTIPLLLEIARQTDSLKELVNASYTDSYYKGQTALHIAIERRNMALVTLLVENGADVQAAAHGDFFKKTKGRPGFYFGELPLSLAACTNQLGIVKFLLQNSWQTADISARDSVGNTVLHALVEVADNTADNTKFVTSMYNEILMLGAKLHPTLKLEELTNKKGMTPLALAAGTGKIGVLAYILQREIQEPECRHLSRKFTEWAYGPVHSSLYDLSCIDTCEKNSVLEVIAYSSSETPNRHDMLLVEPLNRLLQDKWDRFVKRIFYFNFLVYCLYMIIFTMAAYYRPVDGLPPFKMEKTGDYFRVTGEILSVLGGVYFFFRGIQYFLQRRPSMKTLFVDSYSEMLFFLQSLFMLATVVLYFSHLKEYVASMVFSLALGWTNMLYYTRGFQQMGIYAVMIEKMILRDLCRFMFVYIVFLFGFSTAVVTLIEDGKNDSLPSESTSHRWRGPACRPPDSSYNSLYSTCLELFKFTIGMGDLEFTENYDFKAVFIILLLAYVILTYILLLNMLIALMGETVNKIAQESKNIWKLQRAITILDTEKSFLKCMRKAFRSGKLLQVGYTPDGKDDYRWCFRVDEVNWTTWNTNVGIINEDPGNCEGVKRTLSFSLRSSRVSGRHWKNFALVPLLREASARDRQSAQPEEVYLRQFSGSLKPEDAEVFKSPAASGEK
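Cells expressing TRPV1 were dye-loaded with Fluo-8 and read kinetically: 10 s baseline, 3 min after compound (agonist portion), then 2 min after EC20 capsaicin (allosteric enhancer portion). Calcium-bound dye fluorescence at 480/520 nm.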
ClpP mod: qHTS Assay for Activators of ClpP. Potency, µM (titrated, usually from 57.5 µM), for inactives: top-dose activity change, negative = active. purified B. subtilis ClpP, FRET peptide cleavage, 20 min. AID 651965, 2013. 1.9% of 340,000 active. ATP-dependent Clp protease proteolytic subunit (Bacillus subtilis (strain 168)), P80244; active = well fitted falling curve with a large enough effect; inconclusive = small, poorly fitted or top-dose-only effect; inactive = no such curve, though single readings can be large or run the other way; note: potency is the fitted concentration of half-maximal effect; the source files actives as falling curves though it sought activators and does not explain the sign; nearly all actives have a fitted effect of over 65% in size; many hits overshoot -100%
Target sequence (P80244 whole entry, looked up): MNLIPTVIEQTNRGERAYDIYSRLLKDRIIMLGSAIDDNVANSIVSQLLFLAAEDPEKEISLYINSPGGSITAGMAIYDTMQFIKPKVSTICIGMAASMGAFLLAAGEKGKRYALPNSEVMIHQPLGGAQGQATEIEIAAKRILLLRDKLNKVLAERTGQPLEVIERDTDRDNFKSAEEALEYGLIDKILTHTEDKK
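FRET quenching reversal measured ClpP activation: 10 microg/mL B. subtilis ClpP at pH 8 with the FRET-FV decapeptide, read at 430 nm after 320 nm excitation. The 20-min minus 0-min signal was scaled between DMSO/no-enzyme wells and ADEP (5.8 microM final).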
TRPML1 inh: inhibitors of human TRPML1 channel; TRPML1-inducible cells, Ca2+ dye fluorescence, FDSS; stronger effect = lower value; inhibition of EC80 agonist-evoked calcium signal; Q9GZU1; AID 624415; activity change, negative = inhibition, % (test concentration not listed); 0.02% of 390,000 active; in the data active means activity change below about -50%; inconclusive means about -30% to -50%; inactive means above about -30%;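 note: stimulus is agonist 54-4 at its EC80 concentration; % is set by controls: 0 for no effect and ±100 for the full control effect; compound concentration not given in the record; the text of the record puts the active cut at -80%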
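TRPML1-DL cells, Tet-induced overnight (~16 h, 37 °C) at 1,500 cells/well, were loaded with Ca8 no-wash dye plus quencher for 45-90 min at room temperature. Compounds were pinned during FDSS kinetic reading; agonist 54-4 at EC80 (4 uM final) then added.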
PINK1 expr mod: PINK1 expression modulation. PINK1 immunofluorescence, high-content cytometry, 24 h. Potency, µM (titrated, usually from 76.6 µM), without a hit: at the top dose activation (PINK1 increase), actives largely listed as activators. 0.2% of 410,000 active; active = well fitted activation curve with a large enough effect; inconclusive = small, poorly fitted or top-dose-only effect; inactive = flat fitted curve, though single readings scatter; cell line not stated here;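 note: potency is the fitted concentration of half-maximal effect; % of control where 0% means no effect; nearly all actives have a fitted effect of over 65% in size; a mitochondrial uncoupler was the plate control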
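A stable cell line was treated with compounds at 5 concentrations for 24 hours, with CCCP as control. PINK1 levels and mitochondrial localization were measured by immunofluorescence with mitochondrial, cell and nuclear markers after fixation, read by laser-scanning cytometry.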
TRPML1 agonist: agonists of human TRPML1 channel; Q9GZU1; TRPML1-expressing cells, Ca2+ dye fluorescence, FDSS; host cell line not named in the record; reference of the full effect not given here; activation, % (concentration not given with the values); 0.12% of 410,000 active; AID 624414; in the data active = activation above about 50%; inconclusive = about 30% to 50%; inactive = below about 30%; note: 0% is about no effect; the text of the record puts the active cut at 80%
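Cells: TRPML1-DL, 1X Tet inducer, ~16 h at 37 degrees C/5% CO2. Dye: ABD Ca8 no-wash + quencher, 45-90 min RT. Read: 10 s baseline, compound add, 110 s agonist phase; 54-4 EC80 (4uM final), 110 s antagonist phase.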
Menin MLL FP FL: displaces fluorescein MLL peptide from human menin | Fluorescence polarization, fluorescein-MLL peptide displacement from menin | FP activity change, % at 61.4 µM | 290,000 tested, under 10 active | AID 1766; inconclusive = falling polarisation curve, or a change in total fluorescence; inactive = total fluorescence flat and polarisation flat or rising; no compound was filed as active; the % refers to the polarisation; negative = inhibition;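 note: % of control where 0% means no effect; inhibitors lower the polarisation; unlabelled MLL peptide was the positive control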
Sfp inh: inhibitors of Bacillus subtilis Sfp phosphopantetheinyl transferase; 3.5% of 310,000 active; Potency, µM, inactives show max response, negative = inhibition, hits mostly inhibitors; Biochemical Sfp PPTase activity, qHTS; AID 1490; Q9F4F7; active = well fitted inhibition curve with a large enough effect; inconclusive = small, poorly fitted or top-dose-only effect, or another doubt; inactive = no such curve, though single readings can be large or run the other way;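 note: the enzyme is Sfp with the accession as filed and its product quenches rhodamine fluorescence; potency is the fitted concentration of half-maximal effect; 0% = enzyme reaction without inhibitor and -100% = no enzyme wells; top concentration of the series not given in the record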
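With Hepes-Na pH 7.6 buffer containing 10 mM MgCl2, Sfp (15 nM) modified BHQ-2-YbbR (12.5 uM) using rhodamine-CoA (5 uM). Two reads 30 minutes apart at 525/598 nm yielded each well's rate.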
* hit, by the source's call; u = inconclusive; x = no result given; [ ] = another dose, or the depositor's remark.

The line under a structure holds: TRPV1 potentiator, ClpP mod, TRPML1 inh, PINK1 expr mod, TRPML1 agonist, Menin MLL FP FL, Sfp inh
- COc1ccc(CNC(=O)C(C)OC(=O)CO/N=C(\C)c2ccc3c(c2)OCO3)cc1 (configuration not stated)
→ -10.0, -5.4%, 13.0, -1.0%, 1.1, x, x
- COc1ccc(Br)cc1/C=N/N1C(=O)CSC1=S
→ 2.8, x, -7.6, -2.3%, 0.0, 8.1, -9.0%
- COC(=O)c1sccc1S(=O)(=O)N(CC(=O)NCc1ccc(C)cc1)c1ccc(Cl)cc1
→ x, -2.0%, 13.3, 2.6%, 3.3, x, x
- Cc1noc(C)c1COC(=O)C1CCN(S(=O)(=O)c2c(Cl)cccc2Cl)CC1
→ 1.5, 0.6%, -8.0, -1.1%, 0.3, x, x
- NC(=O)C1CCN(c2ccc(S(=O)(=O)N3CCCCC3)cc2[N+](=O)[O-])CC1
→ x, -0.6%, 8.3, -0.2%, 0.3, x, x
- Cc1[nH]c(=O)[nH]c(=O)c1C1N2CC3(C(C)C)CN1CC(C(C)C)(C2)C3=O (configuration not stated)
→ x, -1.9%, 13.1, 1.4%, -0.4, x, x
- Cc1ccc(CS(=O)(=O)Cc2ccc(C(=O)NCCc3ccc(Cl)cc3)o2)cc1
→ x, 3.0%, 21.9, 2.6%, 1.8, x, x
- CCCCCCCCCCOC(=O)C[N+](C)(C)CC1CCCCC1O (configuration not stated)
→ -3.9, x, -14.1, 1.5%, -0.8, 1.0, 0.2%
- COc1ccccc1N(Cc1ccccc1)S(=O)(=O)c1cccc(C(=O)Nc2ccc(C(C)=O)cc2)c1
→ 5.7, 0.3%, 10.9, 9.6%, 0.5, 1.9, 0.2%
- C=CCC1(C#N)C(SC)=NC2=C(C(=O)CC(C)(C)C2)C1c1ccc(Br)cc1 (configuration not stated)
→ 0.8, -0.6%, 17.3, 3.1%, 1.2, 5.8, 1.9%
- CCC(=O)NC(=S)Nc1ccc(NC(=O)COc2ccc(Cl)cc2Cl)cc1
→ -7.1, -2.5%, 0.1, 9.0%, -0.4, 6.4, 11.9%
- CCOC(=O)c1ccccc1NC(=O)CSc1cc(C)[nH]c(=O)n1
→ x, -8.2%, -12.2, u, 0.0, x, x
- NS(=O)(=O)c1cc(C(=O)NNC(=O)c2ccc3c(c2)OCO3)ccc1Cl
→ x, -0.7%, -0.5, 3.9%, -0.3, x, x
- CCOC(=O)[C@@H]1[C@H]2COc3ccc(Br)cc3[C@@H]2N2C(=O)N(c3ccc(C)cc3)C(=O)[C@]12C
→ -31.3, 0.6%, 6.4, 0.2%, 1.5, -0.4, 9.6%
- CCC(C)(C)NC(=O)C(c1ccc(F)cc1)N(Cc1ccccc1)C(=O)c1cnccn1 (configuration not stated)
→ -25.2, x, 42.4, 0.3%, 1.7, 1.6, 0.2%
- Cc1cccc(CNC(=O)Cn2c(-c3cccs3)cc3ccccc32)c1
→ x, 14.1µM*, 7.7, 8.3%, 1.6, x, x
- CCCN1CNc2c(c(=O)[nH]c(=S)n2-c2ccccc2Cl)C1
→ 4.8, x, -4.7, -0.8%, -0.2, 0.3, -21.2%
- Cc1cccc(OCCCC(=O)Nc2ccc(N3CCCCC3)cc2)c1
→ -19.7, 0.8%, 17.0, 0.0%, 1.5, -2.4, 6.4%
- CNC(=O)c1cnc2sc(N3CCC(C)CC3)nn2c1=O
→ x, 4.2%, 3.6, 1.3%, -0.3, x, x
- Cc1ccc(NC(=O)COC(=O)CCNS(=O)(=O)c2ccc(C)c(C)c2)cc1
→ u, -2.1%, 11.2, -3.3%, 2.8, 0.7, 0.6%
- O=C(NNC(=S)Nc1ccc(Cl)cc1Cl)c1ccc(N2CCOCC2)c([N+](=O)[O-])c1
→ -8.7, -2.6%, -5.5, u, 0.0, -1.7, -12.4%
- O=C(NCc1ccccc1F)C1CCN(c2nn3cc(-c4ccc(F)cc4)nc3s2)CC1
→ x, 1.4%, 19.7, 3.4%, 1.4, x, x
- CC(C)Nc1nc(NCCN2CCNC2=O)c2sccc2n1
→ x, u, x, 1.3%, 0.6, x, x
- COc1ccc(CC(=O)Nc2cc(NC(=O)Cc3ccc(OC)c(OC)c3)cc(C(=O)O)c2)cc1OC
→ 0.9, x, -2.2, 0.5%, 0.6, 2.5, 22.5%
- N#CCSc1nnc(-c2ccccc2O)n1Cc1ccccc1
→ 8.6, 0.6%, -12.0, x, 0.6, 2.6, 4.8%
- COc1ccc(S(=O)(=O)N(CC(=O)Nc2ccc(C)cc2)c2ccc(C)cc2)cc1OC
→ x, 0.3%, -8.8, -1.5%, 3.0, x, x
- Cc1cccn2cc(-c3cccc(NC(=O)c4cccs4)c3)nc12
→ -14.9, x, -4.6, -1.4%, 3.1, -0.8, 8.7%
- CS(=O)(=O)N1CCN(C(=S)NCc2ccc(Cl)cc2)CC1
→ -11.4, x, 11.4, 7.7%, 1.6, -9.4, 12.5%
- COC(=O)c1ccc(Cn2nnc3sc4c(c3c2=O)CCCC4)cc1
→ x, -2.6%, 41.4, -0.4%, 0.4, x, x
- N#Cc1c(NC(=O)c2cc(-n3cnnc3)ccc2Cl)sc2c1CCCC2
→ 1.3, -3.1%, -14.0, 1.3%, 0.6, 2.5, 13.9%

Next compounds
The line under a structure holds: TRPV1 potentiator, ClpP mod, TRPML1 inh, PINK1 expr mod, TRPML1 agonist, Menin MLL FP FL, Sfp inh
- Cn1c(SCc2ccc(Br)cc2)nnc1-c1cccs1
→ -13.9, -3.2%, 5.6, -0.2%, 0.6, 1.4, 15.2%
- COc1ccc(NC(=O)Cn2c(SCc3ccc(C)cc3)nc3cccnc32)c(OC)c1
→ x, 39.4%, 10.7, 1.1%, 3.0, x, x
- O=C1N[C@H](Cc2ccccc2)COC(=O)[C@H](Cc2ccc(F)cc2)C/C=C\C[C@H]1CC(=O)N(CCO)Cc1ccccc1
→ x, -1.7%, -2.2, 0.0%, 0.4, x, x
- O=C1CCCCCC(=O)[C@H](O)C[C@H](c2ccccc2)O1
→ x, 2.8%, x, 3.7%, -0.4, x, x
- N/C(=N\OC(=O)Cc1ccccc1)c1cccnc1
→ 2.6, -1.1%, -3.6, 0.1%[38.3 µM], 0.2, -0.5, 3.8%
- CCOc1ccc(C(=O)Nc2ccc3nc(N(CC)CC)cc(C)c3c2)cc1
→ x, -27.7%, -5.1, -0.8%, -0.5, x, x
- CCC(=O)N(CC(=O)Nc1sc(C)c(C)c1C(N)=O)C1CCCC1
→ 26.9, x, 10.9, 2.2%, -0.5, 0.3, 17.6%
- COc1ccccc1CNC(=O)c1cc(-c2ccc(F)cc2OC)n[nH]1
→ x, -7.1%, x, 2.1%, -0.6, x, x
- CCOc1ccc(S(=O)(=O)NCCC(=O)NCC(c2ccccc2OC)N2CCCC2)cc1 (configuration not stated)
→ 23.1, -4.3%, -6.0, -2.6%, -0.4, x, -2.2%
- COc1c2c(c(OC)c3ccccc13)[C@@]1(OC2)O[C@H](CCO)C[C@H](O)[C@H]1O
→ x, 4.0%, 0.2, -0.1%, -0.3, x, x
- Cc1cccc(C(=O)NCCc2nc3ccccc3n2Cc2ccc(Cl)cc2)c1
→ x, -0.7%, -16.4, 23.2%, 4.3, x, x
- O=C(CSc1ccccn1)N/N=C/c1c[nH]c2ccccc12
→ 3.2, 1.2%, -10.8, 2.4%, -0.6, -2.5, 10.6%
- Cc1cccc(NC(=O)CSc2nc3ccc(NC(=O)CCc4ccccc4)cc3s2)c1
→ x, -8.4%, 5.4, 5.7%, 1.1, x, x
- CC(=O)Nc1c(C)nn(-c2ccccc2)c1N1CCC(C(=O)NCc2ccc(Cl)cc2)CC1
→ x, -1.9%, 3.8, -0.5%, -0.8, x, x
- CCOc1ccc(C(=O)NCC(=O)N2CCc3ccccc3C2)cc1OCC
→ 7.3, -3.6%, 0.8, -0.5%, -0.7, -4.3, 1.6%
- CC(CO)NS(=O)(=O)c1cccc(Cl)c1F (configuration not stated)
→ x, 1.0%, 14.8, 0.1%, -0.1, x, x
- COc1ccc(C(=O)Nn2cc3c(c2-c2ccccc2)c(=O)n(C)c(=O)n3C)cc1
→ -9.5, -6.9%, -0.1, 17.2%[38.3 µM], -0.4, 1.8, 6.0%
- Cc1cccc(/C(N)=N/OC(=O)CCc2ccccc2)c1
→ 2.6, 0.1%, -1.8, -3.7%[38.3 µM], -0.5, 2.9, 7.6%
- Cc1ccc(C(CC(=O)N2CCCC2)c2ccccc2)c(O)c1 (configuration not stated)
→ 10.0, 1.1%, 21.9, -3.5%, 3.4, -3.4, 7.8%
- CCCC[C@@H]1CNC(=S)N1CCc1cccc(F)c1
→ 3.0, -2.1%, -10.1, 1.7%, 0.5, 3.9, -1.6%
- Cc1cccc2c3c(ccc12)C1=C(C(=O)C3=O)C(C)CO1 (configuration not stated)
→ x, x, x, 8.8%, x, -7.1, -20.4%
- Cc1ccc2c(CN3CCN(C(=O)c4ccc(F)cc4)CC3)cc(=O)oc2c1
→ x, -0.2%, -4.8, 1.3%, -0.3, x, x
- Cc1ccc(Cl)cc1N1CCN(C(=O)Cn2ncn3cccc3c2=O)CC1
→ -11.8, 0.5%, 12.6, 2.4%, -0.5, 0.0, 4.3%
- COc1ccc(-c2ccc(-c3cc(=O)oc4cc(OC)c(OC)c(OC)c34)cc2)cc1
→ x, -6.2%, 0.0, -0.6%, 0.4, 4.1, -9.1%
- Cc1cc(NC(=O)c2ccc([N+](=O)[O-])cc2Cl)no1
→ 3.5, -4.4%, x, 0.2%, x, -6.8, 14.4%

Some of these compounds in order of the Menin MLL FP FL value, smallest number first.
compound | Menin MLL FP FL
Cc1cccc2c3c(ccc12)C1=C(C(=O)C3=O)C(C)CO1 (configuration not stated) | -7.1
N/C(=N\OC(=O)Cc1ccccc1)c1cccnc1 | -0.5
COc1ccc(C(=O)Nn2cc3c(c2-c2ccccc2)c(=O)n(C)c(=O)n3C)cc1 | 1.8
